# BJeLR viability: kills HRASV12-expressing BJeLR cells; BJeLR (HRASV12) viability, CellTiter-Glo ATP luminescence, 48 h; reference of the scale not given here; 300,000 tested, 0.17% active; inhibition, % (concentration not given with the values);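 active = replicate mean above 50%; inconclusive = above 50% but judged a plate artefact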;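 also: 50 nL library stock added to about 25 µL; numbers are from one replicate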
# Autofluor counter: compound fluorescence in toxin protease inhibitor counterscreen. AID 624483. 360,000 tested, 3.1% active. fluorescence intensity (no concentration beside the values). compound autofluorescence counterscreen, microsphere flow cytometry; active compounds read high;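 active = at least 3 SD above the mean of all compounds, about 16000 in these data; inconclusive = too few beads counted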;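 also: 100 nL of 1 mM stock went into each well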
# ugtP null kill: growth inhibition of S. aureus ugtP deletion strain; S. aureus RN4220 ugtP deletion, OD600 growth, 16 h; some inactives read as strong as hits; growth inhibition, % (test concentration not listed); 330,000 tested, 0.54% active; AID 1259309;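 active = z-score under -3 and OD600 up to 0.15 on both plates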;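 also: plate controls were untreated wells for no effect and antibiotic for full effect; wells of about 80 µL received 100 nL stock; the first replicate is given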
# RN4220 kill: kills Staphylococcus aureus RN4220; S. aureus RN4220 growth, OD600, 16 h; inhibition, % (concentration not given with the values); 330,000 tested, 0.33% active;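 active = z-score of -3 or lower and OD600 up to 0.18 on both plates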;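 also: plate controls were untreated cells for no effect and reference antibiotic for full effect; stock transfer was 100 nL into about 80 µL; one replicate is shown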
# Mtb hypoxia inh: Mtb hypoxia fluorescent reporter inhibition; M. tuberculosis hypoxia-regulated fluorescent reporter, fluorescence; fluorescence inhibition, % (concentration not given with the values); 300,000 tested, 0.1% active;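 active = 35 to 45% if threefold the growth effect, above 45% if 1.5-fold the growth effect; inactive = the rest, general growth blockers included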;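 also: wells of about 50 µL received 100 nL stock; 0% = vehicle wells and 100% = reference inhibitor wells; whole bacteria with a GFP reporter of the hypoxia response; strong numbers were not always called active; many hits fall short of the cut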
# PrP 5UTR inh: inhibition of PrP 5' UTR reporter expression | 340,000 tested, 0.35% active | cell-based PrP 5' UTR mRNA reporter, plate reader | inhibition, % (test concentration not listed);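 active = every replicate at 50% or more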;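 also: 0 = median of the neutral control wells; tested in H4 reporter cells; numbers are from one replicate; inactives centre near -14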
# Mtb hypoxia inh growth: recorded beside Mtb hypoxia inh, whose call it bears; growth inhibition, %; measured here: M. tuberculosis growth (absorbance);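 0% = vehicle and 100% = reference antibiotic; read after six days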
# * hit, by the source's call; ? = inconclusive; · = not tested or not shown. The order is random; about 4% have a hit in one of these screens.
mol	BJeLR viability	Autofluor counter	ugtP null kill	RN4220 kill	Mtb hypoxia inh	Mtb hypoxia inh growth	PrP 5UTR inh
Cc1ccccc1NC(=O)CC1C(=O)NCCN1C(=O)c1cccc(Cl)c1 (stereo not drawn)	12	5942	8	1.6	3	-5	0
CCOCC(=O)Nc1ccc(C)c(Cl)c1	-8	4140	-4	1.8	8	10	-18
CCN1CN=C(NS(=O)(=O)c2ccc(C)cc2)NC1	11	11128	7	4.8	4	4	-9
CCOC(=O)c1csc(NC(=O)Nc2cccc(Cl)c2)n1	6	2913	·	·	·	·	-36
CCNC(=O)/C(C#N)=C/c1c(N2CCCCCC2)nc2c(C)cccn2c1=O	3	3858	-1	-0.5	19	6	-16
CC(CN1CCCCC1)C(=O)NN (stereo not drawn)	-5	4553	18	7.7	4	11	-19
Cc1ccc(NC(=O)/C(C#N)=C/c2ccsc2)c(C)c1	-1	2408	0	2.6	8	11	-66
N#Cc1ccc(NC(=O)COc2ccc(-n3cnnn3)cc2)cc1	·	3774	0	3.8	2	-3	-13
O=C(C1CCN(S(=O)(=O)c2cccc3cccnc23)CC1)N1CCN(c2ccccc2)CC1	·	3983	-1	-0.5	·	·	-10
CCCCNC(=S)NNC(=O)c1nn(C)cc1Cl	-5	4199	2	3.1	0	-4	-18
Cc1cc(=O)[nH]c(SCC(=O)Nc2nc(-c3ccccc3)cs2)n1	-1	2674	1	11	·	·	-8
CCn1c(C)cc(/C=C2/SC(=O)N(CC(=O)N3CCCC3)C2=O)c1C	-1	3711	-4	1.0	8	2	-21
Cc1csc(CN(C)C(=O)CC2C(=O)NCCN2Cc2ccc(Cl)c(F)c2)n1 (stereo not drawn)	2	5627	1	5.9	3	-3	-18
Cc1ccc(S(=O)(=O)N2CC(C(=O)O)Oc3ccccc32)cc1 (stereo not drawn)	-2	4114	2	1.1	4	-4	-12
c1ccc(-c2nnc3sc(-c4ccncc4)nn23)cc1	5	9878	-1	5.2	-5	-2	-26
CS(=O)(=O)N1CCCC(C(=O)Nc2c(F)cccc2F)C1 (stereo not drawn)	-7	3756	7	-0.4	5	2	1
CC1CCCN(S(=O)(=O)c2csc(C(N)=O)c2)C1 (stereo not drawn)	9	5357	1	0.8	11	7	-16
COc1cc(/C=C/C(=O)C2C(=O)C=C(C)OC2=O)cc(OC)c1O (stereo not drawn)	8	2191	7	2.7	8	12	-4
O=C(COc1ccc(S(=O)(=O)N2CCOCC2)cc1Cl)NCc1ccccn1	0	3698	3	1.8	7	6	-7
COC(=O)c1cc(S(=O)(=O)N2CCCCCC2)c[nH]1	-8	5078	7	5.3	10	3	-9

# Individual results from the entries so far:
# Autofluor counter, `O=C(COc1ccc(S(=O)(=O)N2CCOCC2)cc1Cl)NCc1ccccn1` → 3698
# Mtb hypoxia inh growth, `CS(=O)(=O)N1CCCC(C(=O)Nc2c(F)cccc2F)C1` (stereo not drawn) → 2

# (next part)
mol	BJeLR viability	Autofluor counter	ugtP null kill	RN4220 kill	Mtb hypoxia inh	Mtb hypoxia inh growth	PrP 5UTR inh
Cn1c(CCc2ccc(N)cc2)nc2ccccc21	1	4072	7	5.2	14	10	-68
COc1ccccc1Nc1ccc([N+](=O)[O-])cn1	-1	4430	-1	5.1	11	-2	-14
CCN(CC)c1ccc(C=NN2CCN(c3ccccc3OC)CC2)cc1	·	·	9	-0.5	10	15	·
COc1ccc(NC(=O)CSc2nnc(Cc3ccccc3)o2)c(OC)c1	5	8811	-3	4.7	-5	7	-10
COC(=O)c1ccc(N=NNc2ccccc2)cc1	-15	7536	-20	3.3	5	3	-40
Cc1ccc2c(c1)C1(OCCO1)C(=O)N2	-6	2329	7	2.7	·	·	-19
CC(C)N(c1ccccc1)c1ncnc(NCCC(=O)O)c1[N+](=O)[O-]	-7	4529	-7	5.4	-2	7	0
CCCn1c(=N)c(C#N)cc2c(=O)n3cccc(C)c3nc21	-18	·	1	3.8	-9	8	·
Cc1ccc(N2CCN(C(=O)N3CCOCC3)CC2)c(C)c1	·	4315	-1	-1.3	-3	3	-4
CC(=O)OC1CC[C@]2(C#N)[C@H]3CC[C@]4(C)[C@H](C5C=CC(=O)O5)CCC4(O)C3CCC2(O)C1 (stereo partly drawn)	21	4090	2	4.2	12	17	12
COc1ccccc1NS(=O)(=O)c1ccc(N/N=C(\C)C(C)C)c([N+](=O)[O-])c1	20	2350	·	·	·	·	-11
Cn1c(COc2ccccc2)nnc1SCC(=O)Nc1ccc(S(N)(=O)=O)cc1	-4	8014	3	2.2	1	1	-8
O=C1C2ON(c3ccc(Br)cc3)C(c3cccnc3)C2C(=O)N1C1CCCCC1 (stereo not drawn)	5	3061	-6	1.9	·	·	-7
CN1CC(=O)N(CC(=O)N2N=C(c3ccc(Cl)cc3)CC2c2ccco2)C1=O (stereo not drawn)	-14	4562	3	-3.8	-5	6	-7
C=CCn1c(SCC(=O)Nc2ccc(NC(C)=O)cc2)nc2sc(C)c(C)c2c1=O	·	·	-4	-0.3	12	3	-7
NC(=O)c1ccsc1NC(=O)COC(=O)CNC(=O)c1ccc(F)cc1	·	3449	2	4.2	6	2	-27
Cc1cc(S(=O)(=O)NCC(=O)O)ccc1F	-9	4698	0	1.9	4	5	-2
O=C1/C(=C\c2ccc(Br)o2)SC(=Nc2ccccc2)N1c1ccccc1	4	3870	-10	-10	11	5	-10
COc1ccc(S(=O)(=O)N2CCC(C(=O)N3CCc4ccccc4C3)CC2)cc1	-6	?	-5	9.5	10	10	1
O=C(O)C1C2CCCCC2=C2CCCCC2C1C(=O)c1ccccc1 (stereo not drawn)	-1	3748	17	-3.3	5	-5	-18
Cc1cc2ccccc2c(=O)[nH]1	-12	8424	1	9.1	11	7	-23
Cc1ccc(C2CC(c3ccccc3)=NN2C(=O)CSc2nnc(-c3ccncc3)n2C)o1 (stereo not drawn)	10	2596	-5	5.9	4	6	-32
CCCCOc1ccc(OC(=O)Nc2cc(Cl)ccc2OC)cc1	-13	2950	46	8.9	-2	4	-1
O=C(C1CCN(C2CCN(Cc3ccsc3)CC2)CC1)N1CCOCC1	-8	7168	13	0.1	9	1	-24
CCCCN(C(=S)NC(=O)c1cc(OC)c(OC)c(OC)c1)c1c(N)n(Cc2ccccc2)c(=O)[nH]c1=O	-7	1974	6	-7.9	11	-3	-2
COc1cc([N+](=O)[O-])ccc1NC(=O)NNC(=O)CCc1ccccc1	1	6262	-2	1.4	0	1	-19
O=C(c1cccc(Cl)c1)N1CCCC(C(=O)N2CCCCCC2)C1 (stereo not drawn)	-8	10080	0	3.1	14	4	-23
CC(C)c1c(C(=O)NN=Cc2ccccc2OCc2c(F)cccc2Cl)nnn1-c1nonc1N	·	·	73	-12	11	1	·
CCc1cccc(C)c1NC(=S)N(Cc1cccnc1)Cc1ccco1	1	2451	2	0.9	9	7	-8
CCOc1ccc(-c2cc(C(=O)NCCCn3ccnc3)c3ccccc3n2)cc1	2	4109	-1	2.2	6	12	-10
Cc1ccc(C2CC(=O)C=C(O)C2)cc1 (stereo not drawn)	-2	4899	6	-4.0	·	·	-10
O=Cc1c(Cl)[nH]c(=O)n1-c1ccccc1	·	4607	-1	1.2	7	2	-33
O=C(C1CCN(S(=O)(=O)c2cnc[nH]2)CC1)N1CCN(c2ccc([N+](=O)[O-])cc2)CC1	5	5565	0	6.3	13	10	-10
O=C(NCCCN1CCOCC1)C(=O)NCc1ccc(Cl)cc1	0	4476	1	1.6	7	7	10
CC12CCC(=O)C=C1C(F)CC1C2C(O)CC2(C)C1CCC2(O)C(=O)CO (stereo not drawn)	·	2864	11	4.3	15	8	13
Cc1ccc(CNC(=O)CCS(=O)(=O)c2ccc3c(c2)CC(C)N3C(=O)C2CC2)cc1 (stereo not drawn)	12	5433	7	2.1	-2	-3	-14
O=C(c1ccc(Cl)cc1)c1ccc(OCC(O)CN2CCCCC2)cc1 (stereo not drawn)	8	4213	0	0.2	·	·	-9
N/C(=N\OC(=O)COc1ccc(Cl)cc1Cl)c1cccnc1	6	2353	0	7.2	·	·	-69
C/C(C=NNC(=O)CSc1nc(C)cc(C)n1)=C/c1ccccc1	·	·	0	-1.1	4	0	·
CCn1c(CNC(=O)c2cc(OC)c(OC)c(OC)c2)cc2cc(C)ccc21	6	3785	11	3.4	3	5	1
O=C(CNC(=O)c1ccccc1F)NC1CCN(Cc2ccccc2)CC1	-3	4828	15	4.1	2	-1	-26
CCOc1ccc(/C=N/OCC(=O)Nc2ccc3c(c2)OCO3)cc1	-3	4538	·	·	·	·	-32
COc1ccc(-c2noc(-c3ccccc3-c3ccccc3)n2)cc1	10	5244	88*	-3.3	2	7	-13
C=CCOc1c(Cl)cc(CNCCCN2CCOCC2)cc1OC	-6	3378	·	·	·	·	-6
CN(c1ccccc1)S(=O)(=O)c1ccc(NC(=O)c2ccco2)cc1	-7	2601	-3	7.4	5	12	-25
O=C(Nc1ccccc1C(=O)O)c1ncn[nH]1	12	3472	-4	-14	2	5	-16
CCOc1ccc(OCCSc2nc3ccccc3o2)cc1	9	3725	28	16	18	20	-12
O=C(CCCn1cncn1)N1CCCC(N2CCN(c3ccccc3F)CC2)C1 (stereo not drawn)	-6	5641	-5	0.2	0	10	-15
COC(=O)C1=C(O)CSC1=Nc1cccc(C(F)(F)F)c1	5	17678*	-6	-6.0	-6	-4	-15
COc1ccc(Oc2cc(C(F)(F)F)cnc2C(N)=O)cc1	-5	2761	1	-5.7	·	·	-5

# (next part)
mol	BJeLR viability	Autofluor counter	ugtP null kill	RN4220 kill	Mtb hypoxia inh	Mtb hypoxia inh growth	PrP 5UTR inh
CC1(O)C(=O)c2ccccc2N(c2ccccc2)C1=O (stereo not drawn)	10	3456	-4	1.0	·	·	3
Cc1sc2ncnc(N3CCC(C(=O)Nc4nc5ccc(Cl)cc5s4)CC3)c2c1C	7	7624	-10	1.1	4	4	-43
Cn1c(N)c(N2CCCCC2)c(=O)n(CC(=O)Nc2cccc(C#N)c2)c1=O	·	3700	12	2.7	7	6	-13
COc1ccc(C(=O)CCC(=O)O)c(C)c1	4	22646*	13	1.2	0	3	-4
CCOC(=O)/C(=N\Nc1cccc(C(F)(F)F)c1)N(CCOC)CCOC	-5	22213*	·	·	·	·	0
Cc1ccc(C)c2[nH]c(=O)c(CN(CCCN(C)C)C(=O)NCc3ccccc3)cc12	-1	?	5	11	-5	7	-7
Cc1cccc(C(=O)Nc2sc3c(c2C(=O)O)CCCC3)c1	12	4298	22	22	7	0	-25
O=S(=O)(Nc1ccc2c(c1)nc1n2CCN(Cc2ccccc2)C1)c1ccc(Cl)cc1	-4	?	5	6.3	15	2	-24
Cc1[nH]c2ccc3c(ncn3CCC#N)c2c1C	10	15721	10	2.0	26	19	-16
CCc1ccc(C2=NNC(=Nc3cccc(S(=O)(=O)N(C)C)c3)SC2)cc1	-4	1863	17	0.6	2	1	-14

# Not a retest: an excerpt of the list.
mol	BJeLR viability	Autofluor counter	ugtP null kill	RN4220 kill	Mtb hypoxia inh	Mtb hypoxia inh growth	PrP 5UTR inh
Cc1cc(=O)[nH]c(SCC(=O)Nc2nc(-c3ccccc3)cs2)n1	-1	2674	1	11	·	·	-8
CCn1c(C)cc(/C=C2/SC(=O)N(CC(=O)N3CCCC3)C2=O)c1C	-1	3711	-4	1.0	8	2	-21
Cc1csc(CN(C)C(=O)CC2C(=O)NCCN2Cc2ccc(Cl)c(F)c2)n1 (stereo not drawn)	2	5627	1	5.9	3	-3	-18

# (more compounds)
mol	BJeLR viability	Autofluor counter	ugtP null kill	RN4220 kill	Mtb hypoxia inh	Mtb hypoxia inh growth	PrP 5UTR inh
CCC(CC)c1nnc(NC(=O)C2CC(=O)N(CCc3ccc(OC)c(OC)c3)C2)s1 (stereo not drawn)	-2	·	-2	0.7	-5	-2	-6
CCOc1c(Br)cc(C(N)=O)cc1OC	3	3592	14	1.5	·	·	0
COc1ccc(C(=O)C2CCCN(C(=O)CSC)C2)cc1OC (stereo not drawn)	-12	3310	9	1.4	1	-5	-55
CC(=O)N/C(=C\c1ccccc1)C(=O)OC(C)C(=O)NCc1ccccc1 (stereo not drawn)	-1	5608	4	1.5	-4	-1	-7
CCOc1ccc(C(=O)NN2C(=O)C3C4C=CC(O4)C3C2=O)cc1 (stereo not drawn)	-1	3095	2	6.1	4	6	-26
Cc1ccccc1NC(=O)CSc1ccc(-c2ccco2)nn1	-1	11106	2	2.9	11	1	-20

# Screening results: PubChem BioAssay, several laboratories
